High-throughput results (PubChem BioAssay)
GLA inh pH 4.5 – alpha-galactosidase A (human) inhibition, pH 4.5. purified enzyme, 4-MU-alpha-Gal fluorescence, pH 4.5. P06280. activity change, negative = inhibition, % at 105 µM. 230,000 tested, under 10 active; inconclusive = small, poorly fitted or top-dose-only inhibition, or a rising curve; inactive = flat fitted curve, though single readings scatter; no compound was filed as active;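 also: 0% = full activity with enzyme and -100% = basal without enzyme; dose as in the result columns while the protocol names 77 µM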
Rango dissoc inh – inhibitors of RanGTP-induced Rango-importin beta complex dissociation | O95149+P62826 | Biochemical FRET Rango-importin beta, RanGTP-induced dissociation | Potency, µM (top dose mostly 46.1 µM), inactives show at the top dose activity change, negative = inhibition | actives 0.071% (n = 340,000) | AID 540253; active means falling FRET ratio curve, often poorly fitted, with flat reads before Ran was added; inconclusive means other falling curves, or compound fluorescence or quenching; inactive means flat or rising ratio curve;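 also: potency is read from the fitted curve at half-maximal effect; % of control where 0% means no effect; nearly all actives have a fitted effect of over 45% in size; -100% = wells without RanGTP and RCC1; the record marks most hits as doubtful in a second field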
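Compounds preincubate 5 min with complex of recombinant Rango and importin beta in PBS with 1 mM DTT. Ran (0.6 uM) loaded with 2 mM GTP plus 0.2 uM RCC1 starts dissociation; FRET is recorded 45 min later.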
miR-21 FLuc – raises the signal of a miR-21 reporter | HeLa miR-21 FLuc reporter, luciferase, 48 h | Potency, µM (top dose mostly 38.3 µM), inactives show top-dose reporter change, positive = more light | 340,000 tested, under 10 active; active = well fitted rising curve with a large enough effect; inconclusive = small, poorly fitted or top-dose-only effect; inactive = no such curve, though single readings can be large or run the other way;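 also: % of control where 0% means no effect; miR-21 action dims this reporter so a rising signal means less miR-21 action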
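HeLa cells stably expressing CMV-driven firefly luciferase with a downstream miR-21 binding sequence, endogenously expressing miR-21, were treated with titrations (up to about 40uM final) for 48 hours at 37 degree Celsius. Luciferase luminescence was read after lysis.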
Rango complex inh – Rango-importin beta binding inhibition; Q14974; Rango CFP/YFP FRET sensor + importin beta, 45 min; Potency, µM (titrated, usually from 92.2 µM), for inactives: at the highest dose inhibition of complex formation; actives 0.031% (n = 340,000); AID 540263; active = rising FRET ratio curve, often small or poorly fitted; inconclusive = mostly compound fluorescence or quenching in the first reads; inactive = flat curves in all reads;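 also: potency is read from the fitted curve at half-maximal effect; 0% = DMSO wells and 100% = buffer wells lacking importin beta; nearly all actives have a fitted effect of over 15% in size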
Target sequence (Q14974 whole entry, looked up): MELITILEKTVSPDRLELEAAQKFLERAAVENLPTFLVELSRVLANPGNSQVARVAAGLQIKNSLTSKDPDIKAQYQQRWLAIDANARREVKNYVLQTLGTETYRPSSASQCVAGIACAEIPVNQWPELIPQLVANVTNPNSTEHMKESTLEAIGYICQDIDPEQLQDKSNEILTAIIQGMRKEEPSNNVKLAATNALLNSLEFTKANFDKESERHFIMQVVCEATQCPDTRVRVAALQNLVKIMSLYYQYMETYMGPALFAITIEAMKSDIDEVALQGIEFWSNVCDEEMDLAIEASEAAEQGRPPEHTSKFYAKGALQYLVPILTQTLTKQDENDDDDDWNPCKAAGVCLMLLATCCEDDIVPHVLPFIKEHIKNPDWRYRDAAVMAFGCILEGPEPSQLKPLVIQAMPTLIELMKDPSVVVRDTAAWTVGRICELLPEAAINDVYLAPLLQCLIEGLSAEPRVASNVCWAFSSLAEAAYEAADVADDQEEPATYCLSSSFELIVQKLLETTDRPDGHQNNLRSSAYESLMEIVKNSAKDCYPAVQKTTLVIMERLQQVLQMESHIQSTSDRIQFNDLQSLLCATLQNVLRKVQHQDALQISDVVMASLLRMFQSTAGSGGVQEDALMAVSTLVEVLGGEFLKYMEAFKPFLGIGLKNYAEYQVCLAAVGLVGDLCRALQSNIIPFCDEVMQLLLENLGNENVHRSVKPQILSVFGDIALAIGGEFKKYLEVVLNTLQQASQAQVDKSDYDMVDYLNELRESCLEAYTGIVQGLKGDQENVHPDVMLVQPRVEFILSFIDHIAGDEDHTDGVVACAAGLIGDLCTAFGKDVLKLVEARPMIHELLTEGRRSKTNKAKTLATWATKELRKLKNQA
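Inhibition scored from the CFP 486 nm/YFP 530 nm FRET ratio 45 min after adding 0.125 microM importin beta to 50 nM Rango biosensor preincubated 5 min with compound (room temperature, PBS with DTT, Tween-20, BSA). No-importin wells as positive control.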
* = called active by the depositor; u = inconclusive; x = no result given; & = joins results of further samples.

Rango dissoc inh,miR-21 FLuc,Rango complex inh,GLA inh pH 4.5,smiles
0%,-10%,0.0%,3,Cc1cc(C)c2nc(SC(C)C(=O)NCC(=O)Nc3ccc(F)c(F)c3F)cc(C)c2c1 (configuration not stated)
0%,x,-4.0%,x,Cc1nc2ccccn2c(=O)c1NC(=O)c1cccc2ccccc12
12%,-2%,1.7%,-3,Cn1ccnc1SCC(=O)Nc1cccc(S(=O)(=O)N2CCCCC2)c1
u,-5%,-1.2%,x,CCCc1nnc(NC(=O)CCC(=O)N2CCC(C)CC2)s1
u,-31%,u,3,Cc1csc(NC(=O)c2cc3c(s2)-c2ccccc2OC3)n1
-12%,1%,-2.6%,5,CCOC(=O)CSc1nnc([C@H](Cc2ccccc2)NC(=O)OC(C)(C)C)o1
u,16%,1.5%,2,CC1=C(C(N)=O)C(c2ccc3c(c2)OCO3)n2nc(-c3cccc(C)c3)nc2N1 (configuration not stated)
5%,u,5.3%,0,CC1CCC(C(C)C)C(OC(=O)Cn2c(-c3ccc(F)cc3)[n+](C)c3ccccc32)C1 (configuration not stated)
0%,0%,0.1%,4,CC(C(=O)c1ccccc1)n1c(N2CCOCC2)nc2c1c(=O)n(C)c(=O)n2C (configuration not stated)
6%,x,-0.4%,x,CCN(CC(=O)NC1CCS(=O)(=O)C1)S(=O)(=O)c1ccc(Br)cc1 (configuration not stated)
-10%,0%,-0.5%,10,CCCN(Cc1cc2cccc(C)c2[nH]c1=O)S(C)(=O)=O
-9%,-1%,2.1%,x,CCN(CC)Cc1c(C(=O)N/N=C/c2cccc3ccccc23)nnn1-c1nonc1N
u,-1%,u,14,Nc1cnccc1C(=O)O
-1%,x,-0.7%,x,O=C(Nc1cccc2ccccc12)NC1CCCCC1O (configuration not stated)
-2%,0%,0.9%,8,COc1cc(OC)cc(C(C)=O)c1
14%,-4%,-0.8%,3,Cc1ccc2c(CC(=O)N3CCOCC3)coc2c1
6%,0%,-0.5%,-4,COc1ccc(-n2c(=O)c3ccccc3n(CC(=O)c3ccccc3)c2=O)cc1OC
0%,x,-2.5%,x,COC(=O)[C@@]12CCCN1[C@H](c1ccc(-c3ccc(C(C)=O)cc3)c(OC)c1)[C@H]1C(=O)N(C)C(=O)[C@H]12
-5%,-3%,-3.7%,5,O=C(Nc1nnc(C(F)(F)F)s1)c1ccc(N2C(=O)C3C4C=CC(C4)C3C2=O)cc1 (configuration not stated)
u,-23%,1.2%,-4,COc1ccc(OC)c(C(=O)c2c(C)oc3cc([N+](=O)[O-])c(O)c([N+](=O)[O-])c23)c1
-17%,-4%,0.4%,1,C/C(=N\OC(=O)c1ccccc1)c1c(C)nc2cc(C)ccn12
-8%,5%,4.7%,2,COC(=O)c1cc(NC(=O)CN(C)Cc2ccccc2)cc(C(=O)OC)c1
7%,12%,0.6%,7,COc1ccc(OC)c(S(=O)(=O)N2CCC(C(=O)Nc3cccc(C)c3)CC2)c1
3%,2%,0.7%,x,O=C(c1ccc(CS(=O)c2cccc(Cl)c2)o1)N1CCCCCC1 (configuration not stated)
-25%,x,u,x,Cc1cc(C)n(CCCNC(=O)c2ccc(C)o2)n1
-7%,x,2.3%,x,CN(Cc1ccccc1Br)C(=O)CSc1nnnn1C1CC1
u,x,u,x,CCOC(=O)/C=c1/s/c(=C\c2c(OC)ccc3ccccc23)c(=O)n1CC(=O)NCC1CCCO1 (configuration not stated)
-1%,-31%,u,x,CCOc1ccc(/C=C/C(=O)NC2CCCCC2)cc1
10%,10%,1.5%,x,C/C(=C\c1ccc(Cl)cc1)C(=O)c1c(C)cc(C)[nH]c1=O
u,19%,u,-1,C=CCn1c(COc2ccccc2)nnc1SC(C)C(=O)N/N=C/c1cc(Cl)ccc1O (configuration not stated)

Continued (4 carried over from the part before).
Rango dissoc inh,miR-21 FLuc,Rango complex inh,GLA inh pH 4.5,smiles
u,x,u,x,CCOC(=O)/C=c1/s/c(=C\c2c(OC)ccc3ccccc23)c(=O)n1CC(=O)NCC1CCCO1 (configuration not stated)
-1%,-31%,u,x,CCOc1ccc(/C=C/C(=O)NC2CCCCC2)cc1
10%,10%,1.5%,x,C/C(=C\c1ccc(Cl)cc1)C(=O)c1c(C)cc(C)[nH]c1=O
u,19%,u,-1,C=CCn1c(COc2ccccc2)nnc1SC(C)C(=O)N/N=C/c1cc(Cl)ccc1O (configuration not stated)
1%,-6%,0.9%,-1,Cn1cc(CNC(=O)c2cc(-c3ccc(Br)cc3)nc3ccccc23)cn1
8%,-7%,0.7%,3,COc1cc(NS(=O)(=O)c2ccc(NC(=O)c3ccc(S(=O)(=O)N4CCCCC4)cc3)cc2)ncn1
-13%,x,2.3%,x,CCOC(=O)[C@@H]1[C@H]2COc3ccccc3[C@@H]2N2C(=O)N(c3ccc(F)cc3)C(=O)[C@]12C
7%,0%,-0.9%,x,COc1ccccc1NC(=O)NNC(=O)c1ccc2ccccc2c1O
17%,-40%,-0.3%,x,CCCn1cnc2cc(NCc3ccccc3O)ccc21
-4%,-63%,u,x,CC1=NN(C(N)=S)C(=O)C1N=Nc1ccc([N+](=O)[O-])cc1 (configuration not stated)
-6%,0%,0.3%,x,COc1ccc(CNC(=O)[C@@H](NC(=O)C2CCN(C(=O)[C@@H]3CCCN3C(=O)OC(C)(C)C)CC2)C(C)C)cc1
-8%,-3%,-1.0%,3,C=CCC(C(=O)OC)(C(=O)OC)c1ccc(C(F)(F)F)cc1[N+](=O)[O-]
0%,-22%,-5.1%,x,Cc1ccc(SCCCCN2CCOCC2)cc1
-8%,11%,2.0%,-1,Cc1cc(C(=O)Nc2nccs2)c2cc(F)ccc2n1
-9%,3%,4.0%,4,CCN(CC)C(=S)NC(=O)c1cc(OC)c(OC)c(OC)c1
-9%,-6%,3.9%,2,c1ccc2c(c1)NC(CN1CCOCC1)CO2 (configuration not stated)
u,-35%,u,-13,CCCOc1ccc(NC(=O)C2CC(=O)N/C(=N/N=C(C)/C=C/c3ccc(N(C)C)cc3)S2)cc1 (configuration not stated)
-12%,x,1.9%,x,CC(=O)N1CCN(C(=O)COC(=O)COc2ccc(C#N)cc2)CC1
u,-28%,u,-5,CN1CCN(S(=O)(=O)c2ccc3c4c(cccc24)C(=O)N3)CC1
1%,x,0.4%,x,CN(Cc1ccccc1)S(=O)(=O)c1cc2c3c(c1)CCN3C(=O)CC2
-5%,-69%,2.0%,-2,Clc1ccccc1/C=C/c1nc(-c2cccnc2)no1
18%,-2%,5.6%,2,COc1cc(Cl)cc(NC(=O)CCN2CCN(C)CC2)c1
-5%,x,-2.7%,x,CCCCn1c(SCC(=O)Nc2ccc(C)c(S(=O)(=O)N3CCOCC3)c2)nnc1C(CC)N(C)C (configuration not stated)
0%,-1%,8.6%,7,CCC(CC)=NNc1ccc([N+](=O)[O-])cc1[N+](=O)[O-]
u,x,u,x,CN(C)c1ccc(/C=C/C(=O)c2ccc3c(c2)OCO3)cc1
-1%,-16%,-2.4%,-3,O=S(=O)(Nc1nc2ccccc2s1)c1ccc(Cl)nc1
7%,1%&21%,-0.2%,x,CCC1CN(C(=O)NCc2ccc(F)cc2)c2ccccc2O1 (configuration not stated)
-3%,-22%,0.2%,x,Cc1ccc(S(=O)(=O)N2CCCC2)cc1C(=O)NCCN1CCOCC1
-1%,-4%,0.2%,x,O=C(c1cc2cc(F)ccc2[nH]1)N(Cc1cccnc1)CC1CCCN(C2CCCCC2)C1 (configuration not stated)
2%,-8%,-1.3%,4,Cc1c2cnn(-c3ccccc3)c(=O)c2c(C)n1CCCC(=O)N1CCN(C)CC1
21%,-2%,0.4%,-4,CC(C)Nc1nc(NNc2nc(Cl)nc(NC(C)(C)C)n2)nc(NC(C)C)n1
0%,-1%,2.4%,0,CC(C)(C)NC(=O)NC(=O)COC(=O)c1cc(=O)[nH]c2ccccc12
5%,4%,-0.4%,-2,CCn1nc(C)c(CN2CCCC(CO)(Cc3cccc(Cl)c3)C2)c1C (configuration not stated)
21%,-1%,1.6%,4,COCCNC(=O)CCCn1c(=O)c2ccccc2n(Cc2cccc([N+](=O)[O-])c2)c1=O

Of the compounds above, 4 have a furan ring, fused or not.
Rango dissoc inh,miR-21 FLuc,Rango complex inh,GLA inh pH 4.5,smiles
14%,-4%,-0.8%,3,Cc1ccc2c(CC(=O)N3CCOCC3)coc2c1
u,-23%,1.2%,-4,COc1ccc(OC)c(C(=O)c2c(C)oc3cc([N+](=O)[O-])c(O)c([N+](=O)[O-])c23)c1
3%,2%,0.7%,x,O=C(c1ccc(CS(=O)c2cccc(Cl)c2)o1)N1CCCCCC1 (configuration not stated)
-25%,x,u,x,Cc1cc(C)n(CCCNC(=O)c2ccc(C)o2)n1

More records follow:
Rango dissoc inh,miR-21 FLuc,Rango complex inh,GLA inh pH 4.5,smiles
-4%,-64%,-5.5%,-7,Cc1cc(C)n2nc(SCCOc3ccccc3)nc2n1
2%,13%,-2.3%,x,CC(C)Cc1nc(Nc2ccccc2C#N)c2nnn(Cc3ccccc3)c2n1
0%,-27%,-2.7%,-7,CC(C)c1ccc2[nH]c3nc(SCC(=O)N4CCOCC4)nnc3c2c1
-20%,0%,u,-17,Cc1ccc2[nH]c(=O)c(CN(Cc3ccco3)S(=O)(=O)c3c(C)ccc4nsnc34)cc2c1
u,-54%,u,-12,Cc1ccc(/C=C/C(=O)c2ccc(N3CCOCC3)cc2)s1
1%,x,-4.1%,x,Cn1nc(C(=O)NNC(=O)C2CSC3(C)CCC(=O)N23)c2ccccc2c1=O (configuration not stated)
-4%,0%,4.1%,x,CN(C)CCN(CC1CCCN(Cc2ccccc2F)C1)C(=O)c1ccc(F)cc1 (configuration not stated)
9%,-1%,0.2%,1,CS(=O)(=O)N1CCc2cc(S(=O)(=O)N3CCCCC3)ccc21
-15%,-21%,1.5%,0,C=CCn1c(C)cc(C(=O)CSc2nnc3c(Cl)cc(Cl)cn23)c1C
0%,x,-0.7%,x,COC(=O)[C@@]1(C)[C@H]2C(=O)N(C)C(=O)[C@H]2[C@H]2CN=C(SCc3ccccc3)N21
3%,-1%,3.2%,x,Clc1ccccc1CNCC1CCCO1 (configuration not stated)
-8%,-2%,4.0%,-14,COc1cc(/C=C(/NC(=O)c2ccccc2Cl)C(=O)O)cc(OC)c1OC
5%,9%,0.3%,-3,C=CCn1c(SCC(=O)Nc2cc(OC)c(NC(=O)c3ccco3)cc2OC)nnc1-c1ccncc1
7%,13%,-2.2%,5,COc1ccc(N2CCN(CCNS(=O)(=O)c3cccc4nsnc34)CC2)cc1
26%,-32%,-0.7%,3,COc1ccc(NC(=O)CC(C)c2ccccc2)c([N+](=O)[O-])c1 (configuration not stated)
-14%,0%,-1.0%,-7,Clc1ncc(CSc2ccccc2)s1
1%,-19%,0.4%,7,CN(C)S(=O)(=O)c1ccc(C(=O)Nc2ccccc2F)cc1
u,-6%,u,u,CCc1c(C)c2ccc(O)c(CN(C)C)c2oc1=O
-4%,-38%,1.3%,23,COc1ccc(CN(C(=O)c2cc3ccccc3oc2=O)C2CCCCC2)cc1OC
-1%,-9%,7.2%,-3,CCOC(=O)N1CCN(C(=O)CSc2nc(-c3cccc(C)c3)ns2)CC1
-1%,-3%,2.7%,-4,CCN(CC)S(=O)(=O)c1ccc(C(=O)NCc2nnc(SCC(=O)OC)n2C)cc1
-1%,-30%,-1.8%,6,S=C(Nc1ccc(Br)cc1Cl)N1CCC2(CC1)OCCO2
12%,5%,1.4%,-4,COc1ccc(OC)c(NC(=O)C(Sc2ccccc2)c2ccccc2)c1 (configuration not stated)

An excerpt, so the mix of outcomes need not match the whole.
